Six1-Eya2 blk – qHTS Assay for Inhibitors of the Six1/Eya2 Interaction | Homeobox protein SIX1 (Homo sapiens) + Protein phosphatase EYA2 (Homo sapiens), … | AlphaScreen GST-Six1/His-Eya2 binding, biochemical; hits give low values; control for the full effect not named in the record | activity change, % (test concentration not listed) | hit rate 0.56% among 360,000 | AID 651725, 2012; in the data active = activity change below about -65%; inconclusive = about -30% to -65%; inactive = above about -30%; further: on the % scale 0 is the no-effect control and ±100 the full control effect; compound concentration not given in the record
Target sequence (O00167 whole entry, looked up): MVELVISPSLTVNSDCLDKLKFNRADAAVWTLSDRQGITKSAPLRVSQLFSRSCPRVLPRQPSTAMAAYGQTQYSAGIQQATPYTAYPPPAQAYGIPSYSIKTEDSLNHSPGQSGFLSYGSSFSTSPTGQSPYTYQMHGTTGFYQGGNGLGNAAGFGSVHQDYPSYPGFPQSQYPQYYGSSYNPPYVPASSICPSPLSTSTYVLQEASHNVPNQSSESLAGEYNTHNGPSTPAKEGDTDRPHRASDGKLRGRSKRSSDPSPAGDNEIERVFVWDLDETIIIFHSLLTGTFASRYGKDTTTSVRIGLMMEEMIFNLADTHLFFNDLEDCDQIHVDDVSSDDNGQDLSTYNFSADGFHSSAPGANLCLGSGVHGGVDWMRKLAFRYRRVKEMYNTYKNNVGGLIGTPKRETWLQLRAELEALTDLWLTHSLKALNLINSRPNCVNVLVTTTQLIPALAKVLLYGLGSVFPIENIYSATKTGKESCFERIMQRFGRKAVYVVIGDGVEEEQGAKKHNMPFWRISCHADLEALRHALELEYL
Target sequence (Q15475 whole entry, looked up): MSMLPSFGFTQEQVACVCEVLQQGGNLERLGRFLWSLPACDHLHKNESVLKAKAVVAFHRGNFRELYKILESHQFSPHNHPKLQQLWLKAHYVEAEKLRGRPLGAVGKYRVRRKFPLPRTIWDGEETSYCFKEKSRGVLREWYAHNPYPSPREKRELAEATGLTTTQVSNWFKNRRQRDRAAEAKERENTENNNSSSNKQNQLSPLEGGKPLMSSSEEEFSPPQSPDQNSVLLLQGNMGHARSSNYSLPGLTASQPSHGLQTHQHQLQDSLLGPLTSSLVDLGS
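AlphaScreen luminescence read after one hour at 37 °C in darkness. Pin-transferred compounds met GST-Six1 and His-Eya2 protein (5X stock 250 nM/500 nM) plus glutathione donor and Ni-chelate acceptor beads (5X, 50 ug/mL).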
D2 agonist – Beta-Arrestin HTS for Positive Allosteric Modulators of the Human D2 Dopamine Receptor: Agonists | DiscoveRx PathHunter D2 beta-arrestin, luminescence, 90 min; 100% = 57 uM dopamine signal | hit rate 0.084% among 360,000 | activation, % (concentration not given with the values) | AID 624465, 2012 | D(2) dopamine receptor (Homo sapiens), P14416; in the data active = activation above about 40%; inconclusive = about 15% to 40%; inactive = below about 15%; further: compound concentration not given in the record; the text of the record calls up to 30% inactive
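DiscoveRx PathHunter D2 beta-arrestin cells (2,100/well) attached overnight, then compound-stimulated 90 min at 37 C in HBSS/10 mM HEPES/0.1% Tween-20 buffer; beta-galactosidase complementation read by luminescence after 1 h at ambient temperature. Dopamine 57 uM final (EC100) as control.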
TRPML1 blocker – qHTS for Inhibitors of the Human Mucolipin Transient Receptor Potential 1 (TRPML1); TRPML1-inducible cells, Ca2+ dye fluorescence, FDSS; hits give low values; inhibition of EC80 agonist-evoked calcium signal; activity change, negative = inhibition, % (concentration not given with the values); hit rate 0.02% among 390,000; AID 624415, 2012; in the data active means activity change below about -50%; inconclusive means about -30% to -50%; inactive means above about -30%;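 further: stimulus is agonist 54-4 at its EC80 concentration; on the % scale 0 is the no-effect control and ±100 the full control effect; compound concentration not given in the record; the text of the record puts the active cut at -80%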
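TRPML1-DL cells, Tet-induced overnight (~16 h, 37 °C) at 1,500 cells/well, were loaded with Ca8 no-wash dye plus quencher for 45-90 min at room temperature. Compounds were pinned during FDSS kinetic reading; agonist 54-4 at EC80 (4 uM final) then added.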
PINK1 expr mod – A Quantitative High throughput Screen to Identify Chemical Modulators of PINK1 Expression. PINK1 immunofluorescence, high-content cytometry, 24 h. Potency, µM (highest dose often 76.6 µM), for inactives: top-dose activation (PINK1 increase), most hits filed as activators. hit rate 0.2% among 410,000. AID 624263, 2012; active = well fitted activation curve with a large enough effect; inconclusive = small, poorly fitted or top-dose-only effect; inactive = flat fitted curve, though single readings scatter; cell line not stated here;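 further: potency means the concentration at half of the fitted maximal effect; % of control where 0% means no effect; nearly all actives have a fitted effect of over 65% in size; a mitochondrial uncoupler was the plate control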
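Stable cell line treated 24 h with compounds at 5 concentrations (CCCP controls), then fixed and immunostained for PINK1 plus nuclear and cell stains; PINK1 immunofluorescence quantified by laser-scanning microplate cytometry.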
CtBP-E1A inh – qHTS Assay for Inhibitors of the CtBP/E1A Interaction. activity change, % (test concentration not listed). AlphaScreen GST-E1A/His-CtBP binding, 1536-well; hits give low values; control for the full effect not named in the record. hit rate 0.49% among 340,000; in the data active means activity change below about -65%; inconclusive means about -30% to -65%; inactive means above about -30%; further: on the % scale 0 is the no-effect control and ±100 the full control effect; compound concentration not given in the record
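Protein mix (5X: 125 nM each GST-E1A, His-CtBP) was incubated with pinned compound 2 h at 37 deg C in dark, in 50 mM Tris pH 8.0 buffer with 300 mM NaCl. Glutathione donor and nickel acceptor beads followed; AlphaScreen signal read after 1 h.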
TRPML1 ag – qHTS for Agonists of the Human Mucolipin Transient Receptor Potential 1 (TRPML1); Mucolipin-1 (Homo sapiens), Q9GZU1; TRPML1-expressing cells, Ca2+ dye fluorescence, FDSS; host cell line not named in the record; reference of the full effect not given here; activation, % (no concentration beside the values); hit rate 0.12% among 410,000; AID 624414, 2012; in the data active = activation above about 50%; inconclusive = about 30% to 50%; inactive = below about 30%; further: 0% is about no effect; the text of the record puts the active cut at 80%
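Kinetic FDSS Ca2+ read in Tet-induced TRPML1-DL cells (ABD Ca8 dye plus quencher, 45-90 min RT loading): baseline, then compound, then 110 s agonist window; EC80 agonist 54-4 at 4uM final added afterwards for a 110 s antagonist window.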
An asterisk follows results filed as active; ? = inconclusive; nt = no result given; & = joins results of further samples; [ ] = another dose, or the depositor's remark.

Each structure is followed by: TRPML1 ag	CtBP-E1A inh	PINK1 expr mod	Six1-Eya2 blk	D2 agonist	TRPML1 blocker
O=C(Nc1cccc(Cl)c1Cl)c1ccc2c(c1)N(Cc1cccc(Cl)c1)C(=O)c1ccccc1S2=O (stereo not given)
    0.0	nt	-1.5%	nt	nt	5.1
COc1ccc(C(C[N+](=O)[O-])c2c(C)[nH]n(-c3ccccc3)c2=O)cc1 (stereo not given)
    7.1	2.9	3.3%	5.6	2.6	-1.5
Cc1ccc(C(=O)Nc2cccc(S(=O)(=O)N3CCCCC3)c2)cc1[N+](=O)[O-]
    2.6	-22.5	0.4%	-18.5	11.1	44.1
Clc1ccccc1-c1nnc(-c2cccs2)o1
    -0.3	9.6	-1.5%	37.0	-1.0	-13.6
Cc1cc(C)c(C(O)c2ncc(-c3ccccc3C)[nH]2)c(C)c1 (stereo not given)
    -0.6	-3.5	3.4%	-0.9	-5.2	nt
CCNc1cc2n(c(=O)n1)CCc1cc(OC)c(OC)cc1-2
    0.1	-5.0	nt	?	0.1	9.4
CC1Cc2ccccc2N1c1ncnc2c1nnn2Cc1ccccc1Cl (stereo not given)
    -0.9	8.3	11.6%	-0.2	-1.8	8.9
CC(=O)c1ccccc1NC(=O)COC(=O)C1=NN(c2ccccc2)C(=O)CC1
    1.4	1.6	-2.2%	9.1	-2.6	7.2
O=C(Nc1ccccc1C(F)(F)F)C1CCN(S(=O)(=O)Cc2ccccc2)CC1
    -0.7	nt	0.1%	nt	nt	4.6
CCCc1cc(N2CCCC(C(=O)NCc3ccc4c(c3)OCO4)C2)n2ncnc2n1 (stereo not given)
    1.0	7.5	-2.3%[38.3 µM]	-0.3	3.6	48.5
O=C(COC(=O)c1ccncc1)c1ccc(Br)cc1
    -0.6	4.2	2.0%	-3.9	-7.5	-8.4
CCCn1c(N)c(N(CCOC)C(=O)c2ccc(N3CCCC3=O)cc2)c(=O)[nH]c1=O
    -0.2	2.7	-2.6%	1.1	1.5	8.0
COc1ccc(CCN2C(=O)CS/C2=N/NC(=O)c2ccccc2F)cc1OC
    1.3	nt	-1.0%	2.7	-5.5	-9.2
CCCCN1C(=O)C(CC(=O)NCc2cccs2)CC(C(=O)N(CC)CC)=C1C (stereo not given)
    -0.4	4.6	0.3%	18.2	-9.4	-12.2
CCc1nc(SCc2cccnc2)c(C#N)cc1C
    0.8	10.3	4.5%[38.3 µM]	2.3	-1.2	-5.6
O=C(O)CN=C1NC2(CCCCC2)Cc2ccccc21
    -0.3	11.2	4.4%[38.3 µM]	6.0	-1.2	-9.4
CCc1nc(SCC(=O)c2c[nH]c3ccccc23)n[nH]1
    0.1	4.1	-0.7%	-3.6	-0.9	10.6
CCN1CCN(c2nc(C)nc3c2sc(=S)n3C)CC1
    0.3	-14.3	0.7%	1.6	-0.2	18.3
Oc1cccnc1CCc1ccccc1
    0.0	3.2	1.5%	3.1	-1.8	3.9
COc1ccc(-c2noc(N3CCCC(C(=O)Nc4ccccc4F)C3)n2)cc1 (stereo not given)
    1.6	-2.8	9.0%	-0.1	-4.3	21.6
COc1ccccc1OCC(=O)Nc1sc2c(c1C(=O)NCC1CCCO1)CCC2 (stereo not given)
    0.8	6.8	nt	-9.2	1.9	26.7
CN1C[C@@H]2C(c3ccccc3)C3(c4ccccc4)CC2(C3)[C@H]1c1ccccc1 (stereo not given in full)
    1.4	-13.1	9.2%	-16.6	-5.9	-6.1
COc1cccc(Cn2cnc3c(N)c(C)c(C)cc32)c1
    -0.4	-23.9	0.5%	3.8	-1.7	1.4
CC(/C=C/c1ccc2c(c1)OCO2)=N/NC(=O)COc1ccc(C)cc1
    0.2	4.1	10.1%	7.1	-3.5	17.2
COc1ccc(C2NC(C(=O)O)Cc3c2[nH]c2ccccc32)cc1OC (stereo not given)
    1.7	-4.4	-0.7%	0.8	-0.3	-2.4
CCOC(=O)c1sc(NC(=O)c2cccs2)cc1C
    -1.3	0.7	-0.8%	-3.6	-1.7	1.9
COC(=O)c1cnc(N2CCCN(S(=O)(=O)c3ccc(C(F)(F)F)cc3)CC2)nc1C(F)(F)F
    4.4	8.3	10.4%	0.1	-2.6	-13.4
CCc1cc2c(=O)n(-c3ccc(C)cc3)cnc2s1
    0.9	6.6	-0.2%	-6.6	-3.1	29.9
COc1ccccc1CC(=O)Nc1ccccc1C(=O)O
    -0.4	40.7	2.3%[38.3 µM]	0.0	-0.1	-12.3
COc1cccc(N2CCN(C(=O)c3c(C)oc4ncnc(N5CCOCC5)c34)CC2)c1
    1.5	nt	4.2%	nt	nt	12.0
CCCN1CCC(=NNc2ccc(C(=O)O)cc2)CC1
    0.6	-3.1	-0.1%	4.8	3.2	-3.2
CCOc1ccc(NC(=O)CN(C)C(=O)c2cc(C)nc3ccccc23)cc1OCC
    -0.1	nt	1.4%	4.1	-3.4	-3.6
CC(C)C[C@H]1CN=C(Nc2ccccc2)N1CC1CCC(C)CC1 (stereo not given in full)
    -0.2	-4.5	14.3%	-2.0	-0.8	34.6
COc1cc2c(cc1NC(=O)CSc1nnc(Cc3cccs3)n1Cc1ccco1)oc1ccccc12
    0.9	-0.3	25.3%[38.3 µM]	-14.5	-3.5	6.7
COCC(=O)Nc1ccc(S(=O)(=O)NCC2CCCO2)cc1 (stereo not given)
    0.4	5.9	3.7%	3.3	6.1	-22.1
COc1ccc(NC(=O)CN(C)C(C)C(=O)NC(=O)NC2CCCCC2)cc1 (stereo not given)
    0.4	-4.8	2.3%	19.6	-1.2	-9.9
Cc1ccc(Cn2c(=O)n(CC3CCC(C(=O)N4CCOCC4)CC3)c(=O)c3sccc32)cc1 (stereo not given)
    -0.5	nt	-1.0%	nt	nt	6.8
CCCCNCCCCOc1ccccc1
    -0.2	2.6	1.6%[38.3 µM]	3.2	1.0	22.5
CCOc1ccccc1NC(=S)/C(=C(\[O-])c1ccc2c(c1)OCCO2)[n+]1ccc(CC)cc1
    5.0	-10.6	-2.5%	-2.5	-4.0	-6.7
NC(=O)c1cccc(-c2ccnc3c2CC(C(=O)NCCC(F)(F)F)O3)c1 (stereo not given)
    -0.4	-5.1	3.1%	-6.1	-3.6	nt
Cc1ccc(S(=O)(=O)NC2=NCCC2)cc1
    -0.7	7.7	-2.7%	12.9	-0.4	-1.3
CCNC(=O)CC1C(=O)N(c2ccc(C)cc2)C(=O)N1CCC(C)C (stereo not given)
    -0.9&-0.1	5.5	4.4%&1.0%	4.7	2.7	5.0&-15.5
Cc1ccc(CNC(=O)c2cccnc2)cc1
    -0.3	nt	-0.1%	4.1	-4.1	-1.3
COc1cc2c(C(=O)N(C)c3ccc(F)cc3)cn(C)c(=O)c2cc1OC
    -1.1	-25.2	-0.3%	4.5	-2.7	2.3
CC1CC(C)(C)NC(=S)N1CCC(=O)N1c2ccccc2CC1C (stereo not given)
    0.0	1.7	0.8%	-2.7	5.0	4.9
CCOC(=O)c1ccc(NC(=O)CSC2=NC(=O)C(CC)C(=O)N2)cc1 (stereo not given)
    0.6	-6.5	0.0%	-0.7	-2.6	-14.1
CC1(C)CC(=O)C=C(C(=O)N2CCCC(CCC(=O)NCc3ccccc3F)C2)O1 (stereo not given)
    0.7	6.8	2.7%	1.8	1.7	4.3
CCCn1c(C)cc(/C=C(\C#N)C(=O)OCC(=O)N(CC)c2c(N)n(Cc3ccccc3)c(=O)[nH]c2=O)c1C
    1.6	-15.6	0.8%	-9.9	-2.9	15.0
O=C(O)C12CC3CC(C1)CC(n1ncc(N4CCN(c5ccccc5)CC4)c(Cl)c1=O)(C3)C2
    -0.1	0.3	-0.2%	1.7	-2.2	20.8
CC(=O)Nc1ccc(OCCC[n+]2cccc(C(=O)[O-])c2)cc1
    -0.4	2.5	-2.0%	1.8	0.0	14.7
CC(=O)N1CCN(c2cccc(C)c2C)CC1
    -1.3	-3.1	-1.6%	0.4	0.2	4.9
N#CCCN(Cc1ccccc1)C(=S)Nc1ccccc1
    -0.1	1.1	2.9%	-2.6	-2.9	5.6
O=C(O)Cc1sc(-c2ccc(Cl)cc2)nc1-c1ccccc1
    1.1	-1.6	2.8%	1.7	-3.2	34.4
O=C(CN1CCN(C(=O)N2CCOCC2)CC1)Nc1cc(Cl)ccc1Cl
    0.8	-1.4	-0.9%	1.2	0.0	-8.6
CC(=O)c1ccc(OC(C)C)c(Cc2c(O)nc(N)[nH]c2=O)c1
    0.8	0.5	-0.4%	1.2	-0.1	7.7
O=C(O)c1nn(-c2cccc(C(F)(F)F)c2)ccc1=O
    0.1	nt	0.1%	2.7	-1.1	-1.1
CCCc1nc(SCC(=O)N2CCCC2)c2c(=O)n(C)c(=O)n(C)c2n1
    -0.4	3.0	1.5%	3.3	-4.2	-14.7
O=C(O)CCCN1C(=O)/C(=C\c2ccco2)SC1=S
    0.8	-5.2	1.0%	?	-0.3	33.1
CCOc1ccc(S(=O)(=O)NCCc2c(C)[nH]c3c(Cl)cccc23)cc1C
    0.1	nt	6.1%	nt	nt	4.8
COc1ccccc1OCC(=O)N(Cc1ccco1)Cc1ccccc1F
    2.4	nt	-1.1%	nt	nt	-2.9

The list goes on.
Each structure is followed by: TRPML1 ag	CtBP-E1A inh	PINK1 expr mod	Six1-Eya2 blk	D2 agonist	TRPML1 blocker
O=C(Nc1nc2ccc(F)cc2s1)c1ccccn1
    0.8	-92.4*	1.4%	-76.9*	-1.5	21.5
O=c1ccnc(SCCc2ccccc2)[nH]1
    0.3	nt	-1.7%	2.0	3.5	-6.7
Cc1ccc(C)c(S(=O)(=O)N2CCN(C(=O)CCC(=O)NCc3ccc(Cl)cc3Cl)CC2)c1
    0.6	-2.9	-0.1%	-1.5	-0.7	4.7
Cc1ccccc1NC(=O)c1cc(S(=O)(=O)N2CCCCC2)cs1
    0.6	0.3	-3.5%[38.3 µM]	4.7	2.6	6.6
Cc1ccc(S(=O)(=O)NC2CC2)s1
    -0.2	1.1	-0.2%	0.1	-2.7	-13.7
CCn1c(SCC(=O)Nc2ccc(C)cc2)nnc1-c1cnccn1
    -0.5	3.5	0.0%	0.6	-1.7	5.4
N#CC1=C2SCN(c3ccc(F)cc3)CN2C(=O)CC1c1cccc(F)c1 (stereo not given)
    0.5	-5.2	-0.8%	0.2	-2.4	-0.1
CC(C)C(C(=O)C=[N+]=[N-])N1C(=O)c2ccccc2C1=O (stereo not given)
    -0.4	0.4	-1.3%	1.7	-2.0	-4.0

Source: PubChem BioAssay (National Center for Advancing Translational Sciences (NCATS))
